# Screening results deposited in PubChem BioAssay by several laboratories.
# Vif A3G: inhibitors of Vif binding to APOBEC3G peptide, primary screen, biochemical, TR-FRET, GST-Vif 1-94, biotin-A3G peptide, dose response retest (AID 1117319); inhibition, %; hits with a dose series show IC50 in µM; 0.57% of 260,000 active; TR-FRET GST-Vif / biotin-A3G peptide binding; higher % means a stronger effect; test concentration not given here; strong numbers were not always called active;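 active = above the screen mean plus three standard deviations and confirmed in dose response; inconclusive = results disagree or hit not tested in dose response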;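 note: Vif residues 1-94 fused to GST binding biotinylated APOBEC3G peptide 110-148; 0% = full assay without inhibitor and 100% = GST in place of GST-Vif; retest series ran down from 100 µM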
# HNF4A DNA FP: change in binding of human HNF4 alpha to DNA; AID 1224865; 0.3% of 360,000 active; HNF4a-FITC DNA binding, fluorescence polarization, 1 h; P41235; activity change, % at 10 µM; in the data active = activity change above about 30%, passing the limit was not always enough;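 note: controls were the assay level and a saturating level of protein; the project sought stronger binding though the title names inhibitors; some compounds called inactive have numbers as strong as hits; positive values seem to mean higher polarization but the record does not say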
# Target sequence (P41235 whole entry, looked up): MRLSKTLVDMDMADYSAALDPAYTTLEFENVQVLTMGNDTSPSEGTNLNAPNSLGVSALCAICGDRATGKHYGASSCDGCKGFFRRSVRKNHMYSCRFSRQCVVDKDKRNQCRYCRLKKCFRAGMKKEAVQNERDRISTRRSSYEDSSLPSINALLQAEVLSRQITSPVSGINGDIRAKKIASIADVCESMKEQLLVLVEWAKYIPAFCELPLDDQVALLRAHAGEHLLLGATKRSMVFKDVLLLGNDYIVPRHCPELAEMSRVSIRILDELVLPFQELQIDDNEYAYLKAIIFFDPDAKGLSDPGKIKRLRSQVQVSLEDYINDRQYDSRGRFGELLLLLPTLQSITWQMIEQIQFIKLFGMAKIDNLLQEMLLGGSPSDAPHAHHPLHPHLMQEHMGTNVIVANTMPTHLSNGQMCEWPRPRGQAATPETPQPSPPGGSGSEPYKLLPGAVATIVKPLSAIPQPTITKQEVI
# AF4-AF9 inh: MLL-AF4/AF9 protein interaction inhibition; 0.47% of 350,000 active; inhibition, % at 10 µM; AlphaScreen, biotin-AF4 peptide binding to FLAG-AF9;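 active = every replicate reaching a set inhibition limit, whatever the replicate mean, cut at about 25% in these data; inconclusive = mean inhibition reaches that limit but some replicates miss it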;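 note: 0% = plate neutral control median and 100% = total signal loss; the record names both 10 and 1 µM as test concentration; the first replicate is given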
# rRNA inh HTS: inhibits bacterial ribosomal RNA function over humanized ribosomes | E. coli WT GFP vs humanized-ribosome RFP mutants, fluorescence, 24 h; stronger effect = lower value; DMSO median 0, no signal -100 | 1.6% of 350,000 active | GFP signal change (wild-type ribosome), % (no concentration beside the values);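 active = significant combined selectivity score with lowered wild-type GFP, culture density cut under 30%, mutant RFP and density less affected; inactive = any of these conditions unmet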; note: one replicate is shown; some compounds called inactive have numbers as strong as hits
# ALR inh: blocks human ALR sulfhydryl oxidase activity. P55789. purified ALR, DTT oxidation, H2O2 HRP-luminol luminescence. inhibition, % (concentration not given with the values). 3.8% of 290,000 active;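 active = mean and each replicate at 75% or more; inconclusive = only one of the two met; inactive = neither met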;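 note: stock transfer was 7.5 nL into about 7.5 µL; 0% = neutral wells and 100% = wells with inactivated enzyme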
# Target sequence (P55789 whole entry, looked up): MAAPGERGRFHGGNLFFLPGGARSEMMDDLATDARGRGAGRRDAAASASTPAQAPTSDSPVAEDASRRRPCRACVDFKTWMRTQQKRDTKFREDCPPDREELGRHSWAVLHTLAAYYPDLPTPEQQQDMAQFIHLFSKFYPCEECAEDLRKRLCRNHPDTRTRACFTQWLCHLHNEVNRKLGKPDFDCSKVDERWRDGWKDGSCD
# FGF22 binding: FGF22 (human) thermal shift binding; recombinant FGF22 thermal shift, SYPRO orange fluorescence; percent of sucrose octasulfate shift, DMSO zero; calls only at 9.99 µM; 1.5% of 340,000 active;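 active = melting point raised past a set limit in the mean and every replicate; inconclusive = no clear call; three in four hits are not shown here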
# Target sequence (Q9HCT0 whole entry, looked up): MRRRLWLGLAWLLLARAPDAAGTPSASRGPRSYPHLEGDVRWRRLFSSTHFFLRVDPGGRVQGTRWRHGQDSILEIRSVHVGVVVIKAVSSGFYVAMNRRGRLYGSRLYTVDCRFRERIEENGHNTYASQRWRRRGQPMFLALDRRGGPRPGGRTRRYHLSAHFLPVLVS
# Ecoli growth: inhibitors of Escherichia coli growth; OD600, 23 h; stronger effect = lower value; 0.21% of 330,000 active; OD600 absorbance (concentration not given with the values); AID 1053175;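 active = OD600 absorbance below the run mean of sample wells minus 3.6 SD, in any replicate, cut at about 0.56 in these data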;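 note: stock transfer was 300 nL into about 60 µL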
# rRNA inh HTS OD600: also measured in rRNA inh HTS; calls as there; OD600 change, %; measured here: OD600 growth;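 optical density of the mix in the first replicate; 0 = DMSO median and -100 = no signal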
# rRNA inh HTS RFP: also measured in rRNA inh HTS; calls as there; RFP signal change, %; measured here: RFP humanized mutant strains;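 first replicate; 0 = DMSO median and -100 = no signal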
# Numbers without * were called inactive; i = inactive; u = inconclusive; x = not tested or not shown; & = joins results of further samples. Only part of the results is shown, so the mix of outcomes need not match the whole.
SMILES,Vif A3G,HNF4A DNA FP,AF4-AF9 inh,rRNA inh HTS,rRNA inh HTS OD600,rRNA inh HTS RFP,ALR inh,FGF22 binding,Ecoli growth
Cc1cccc(C)c1NC(=O)COC(=O)CCC(=O)c1cccs1,28.0%,2.0,-0.7,8.9,13.5,-2.8,-0.2,x,0.639
CCNC(=O)Nc1ccc2c(c1)C(=O)N(C)[C@@H]1CC[C@H](CC(=O)NCc3ccc(F)cc3)O[C@@H]1CO2,x,x,-0.3,0.5,-3.7,3.5,x,i,x
CC(C)Cc1cc(C(=O)Nc2cccnc2)no1,12.3%,0.3,-12.4,-3.5,7.0,3.7,x,i,0.684
Cc1cccc(OCCCC(=O)Nc2ccc(S(=O)(=O)Nc3ncccn3)cc2)c1C,x,-1.8,-6.7,3.5,14.0,4.8,-2.1,i,0.683
Cc1nn(-c2ccccc2)c2[nH]c(=O)c(CNCc3ccc4c(c3)OCO4)cc12,6.3%,-1.4,x,x,x,x,6.7,x,0.738
N#CCSc1nnc(CNc2ccc(F)cc2)o1,7.2%,-2.7,x,x,x,x,x,x,0.684
O=C(/C=C\c1ccc2c(c1)OCO2)CC1(O)C(=O)Nc2ccccc21 (configuration not stated),-0.5%,0.4,0.7,-9.0,0.3,0.9,4.8,i,0.671
COc1ccc(NC(=O)C[C@H]2C(=O)N(C3CCCCC3)C[C@@H]2c2ccc(OC)cc2)cc1,-4.1%,-1.5,-0.8,x,x,x,x,i,x
CC(C)S(=O)(=O)c1cnc(-c2ccccn2)nc1N,-9.8%,7.4,-6.2,0.6,-0.2,-1.9,-1.5,i,0.644
COc1c(Cl)cnn(-c2ccccc2)c1=O,-10.9%,-1.5,x,x,x,x,-5.0,x,0.707
O=C1NC2(CCCC2)Oc2ccccc21,6.3%,2.1,-17.5,7.6,6.3,-2.5,2.8,i,0.646
Cc1cccc(CSc2nnc(-c3ccccn3)n2N)c1,22.7%,1.3,x,x,x,x,-3.4,x,0.735
C[C@H](CO)N1C[C@H](C)[C@H](CN(C)C(=O)Nc2ccc(C(F)(F)F)cc2)Oc2ccc(NC(=O)Cn3cnnn3)cc2C1=O,x,x,-2.4,-2.3,-4.2,1.0,x,i,x
CC(C)C#Cc1cnc2c(c1)C(=O)N([C@@H](C)CO)C[C@@H](C)[C@H](CN(C)C(=O)c1ccccc1)O2,x,x,0.9,1.2,-3.0,-2.4,x,i,x
CCN1C(=O)OC2(CCCCC2)C1(C)O (configuration not stated),-4.1%,x,x,x,x,x,-17.8,x,0.714
CCCc1nc2scc(-c3ccccc3)c2c(=O)n1N,-1.5%,2.1,x,x,x,x,1.5,x,0.694
COc1ccc(NC(=O)Cn2c(=O)n(CC(=O)NCc3ccco3)c(=O)c3ccccc32)cc1,-5.2%,1.0,x,x,x,x,14.8,x,0.768
CCCCNS(=O)(=O)CCNCc1ccc(OC)cc1,x,1.9,3.4,18.2,14.0,1.1,x,i,0.695
CCOC(=O)c1ccc(NC(=O)CN2C(=O)CSC(C)C2=O)cc1 (configuration not stated),-3.2%,7.2,-0.6,6.3,7.7,0.4,0.8,i,0.712
CCCCc1ccc(NC(=O)CN(C)CC(=O)Nc2ccccc2Cl)cc1,-0.9%,-0.7,0.5,1.3,-20.5,-0.2,-33.6,i,0.659

# A portion from further up, as a working copy:
SMILES,Vif A3G,HNF4A DNA FP,AF4-AF9 inh,rRNA inh HTS,rRNA inh HTS OD600,rRNA inh HTS RFP,ALR inh,FGF22 binding,Ecoli growth
CCOC(=O)c1ccc(NC(=O)CN2C(=O)CSC(C)C2=O)cc1 (configuration not stated),-3.2%,7.2,-0.6,6.3,7.7,0.4,0.8,i,0.712
CCCCc1ccc(NC(=O)CN(C)CC(=O)Nc2ccccc2Cl)cc1,-0.9%,-0.7,0.5,1.3,-20.5,-0.2,-33.6,i,0.659

# Next section.
SMILES,Vif A3G,HNF4A DNA FP,AF4-AF9 inh,rRNA inh HTS,rRNA inh HTS OD600,rRNA inh HTS RFP,ALR inh,FGF22 binding,Ecoli growth
CCOc1ccc2cc(S(=O)(=O)N3CCN(C)CC3)ccc2c1,u,2.4,x,2.8,-3.9,-0.9,-20.5,x,0.729
Cc1ccc(S(=O)(=O)N(CCCc2c(C)nc(N)[nH]c2=O)Cc2ccc([N+](=O)[O-])cc2)cc1,-1.1%,4.3,-27.5,-2.2,-0.5,-2.3,x,i,x
O=C(CCC(=O)N1CCOCC1)Nc1ccc(Cl)c(Cl)c1,-0.7%,5.5,-1.8,14.7,5.8,4.7,-0.8,i,0.701
CCCCCCCNC(=O)C1(CC2CC(c3ccccc3)=NO2)CCN(C(=O)c2ccccc2)CC1 (configuration not stated),x,4.0,8.8,-11.3,-15.2,-3.3,-13.2,i,0.675
Cc1nc2c(nnn2Cc2ccccc2Cl)c(=O)[nH]1,x,-6.2,-35.3,9.3,7.5,2.3,0.0,i,0.677
O=C(c1cc(COc2cccc(C(F)(F)F)c2)on1)N1CCC(c2ccccc2)CC1,x,2.2,-0.3,2.7,-4.3,5.4,-2.2,i,0.724
O=C(NCCc1ccccc1)c1ccc(S(=O)(=O)N2CCCC2)cc1,2.0%,-1.1,-0.3,1.6,-5.8,-0.2,x,i,0.652
COc1ccc(OC)c(S(=O)(=O)N(C)CC(=O)Nc2ccccc2OC)c1,-3.8%,2.8,x,x,x,x,-1.8,x,0.696
CN(C)c1ccc(/C=N/NC(=O)c2ccc(Cl)cc2)cc1,4.3%,0.3,9.3,16.0,2.8,-0.5,16.2,i,x
CCN(CC(=O)NCc1cccs1)C(=O)CCC(=O)c1ccc(C)cc1,x,-0.1,5.9,-0.8,10.0,-1.4,-0.6,i,0.707
Cc1ccc(C(=O)CCC(=O)OCC(=O)Nc2nnc(-c3ccccc3)o2)cc1,5.2%,-0.2,-0.3,-8.2,-19.9,-1.3,x,i,0.669
COc1cc(OC)cc(C(=O)N[C@H](C(=O)NCc2cccs2)C(C)C)c1,1.8%,1.6,2.5,5.4,10.4,-1.3,-15.5,x,0.693
NC(Cc1ccccc1)c1csc(Nc2ccc(C(=O)NCCO)cc2)n1 (configuration not stated),x,-0.8,-2.2,-7.8,8.7,1.3,x,i,x
Cc1onc(-c2c(F)cccc2Cl)c1C(=O)NC1CCSC1=O (configuration not stated),0.2%,2.5,x,x,x,x,-5.4,x,0.733
CCc1cccc(NC(=O)CCCSc2nc3ccccc3[nH]2)c1,x,0.5,x,x,x,x,4.3,x,0.654
CCN(CC)C(=O)c1nc[nH]c1C(=O)N(C)Cc1ccccc1,x,-1.3,x,31.5,17.4,2.9,-2.4,i,0.682
CCCCC(=O)N1CC(=O)Nc2ccc(F)cc2C1c1ccccc1 (configuration not stated),-2.7%,0.2,3.6,5.3,10.4,-0.7,-1.8,i,0.688
COc1ccc(NCc2n[nH]c(=O)c3ccccc23)cc1,4.5%,-5.4,x,x,x,x,x,x,0.747
CCOc1ccc(NC(=O)CCN2CCN(S(=O)(=O)c3cc(Cl)ccc3OC)CC2)cc1,1.8%,0.5,x,x,x,x,-5.1,x,0.737
O=C(C[C@H]1C[C@@H]2c3cc(NC(=O)C4CCC4)ccc3O[C@@H]2[C@H](CO)O1)NCc1ccccn1,x,x,0.2,-1.0,-2.0,-1.1,x,i,x
Cc1nc2c3ccccc3nc(NNC(=O)CCC(=O)NCCN3CCN(c4ccccc4F)CC3)n2n1,x,1.3,x,x,x,x,8.2,x,0.682
CCNCc1ccccc1OCc1ccccc1,16.5%,4.5,-1.3,8.2,3.8,-1.7,9.2,i,0.682
Cc1ccc(NS(=O)(=O)c2ccccc2F)cc1S(=O)(=O)N1CCCCC1,-5.6%,-1.7,-6.8,-9.7,-29.2,-3.3,x,i,0.676
CC(c1ccco1)N(C(=O)c1ccc(F)cc1)c1ccccn1 (configuration not stated),-1.6%,1.6,-1.6,12.5,5.7,1.5,x,i,0.706
CCCN(CC(=O)Nc1ccccc1OC)C(=O)c1cccc(S(=O)(=O)NCc2ccccc2)c1,-1.7%,4.1,4.7,-12.2,-20.1,-0.1,10.6,i,0.697
COc1cccc(CC(=O)Nc2ccc(S(=O)(=O)Nc3nccs3)cc2)c1,-1.6%,1.6,4.2,9.5,2.0,0.6,1.4,i,0.72
CC(C)CCN1CCN(Cc2nc3c(s2)CCCC3)CC1CCO (configuration not stated),-13.0%,5.0,2.9,11.5,-8.2,0.4,-8.3,i,0.691
O=C(CCn1c(=O)oc2ccccc21)Nc1ccc(C(=O)O)cc1,x,1.6,-1.0,10.3,11.8,-0.3,-3.2,i,0.683
CC1CN(S(=O)(=O)c2ccc(C(=O)Nc3sccc3C(N)=O)cc2)CC(C)O1 (configuration not stated),-5.0%,-2.4,0.1,-9.9,0.7,-4.7,31.5,i,0.661
C[C@@H]1C=C(C(=O)N2CCOCC2)O[C@H](OCc2ccc(CO)cc2)C1,1.7%,0.6,-0.3&-0.7,1.3,14.4,0.8,-5.5,i,0.785
CC(C(=O)NCCC1=CCCCC1)N1C(=O)c2ccccc2C1=O (configuration not stated),-3.2%,0.1,x,x,x,x,-3.6,x,0.698
Cc1ccc(C(=O)COC(=O)CN2C(=O)C3C4C=CC(C4)C3C2=O)cc1[N+](=O)[O-] (configuration not stated),x,2.3,x,x,x,x,-13.6,x,0.693
O=C(CC1Sc2ccccc2NC1=O)NNc1ccc(F)cc1 (configuration not stated),-7.9%,-2.4,-98.1,-5.0,-9.4,3.5,x,i,0.671
CCOc1ccc(NC(=O)c2cc(Cl)nc3ccccc23)cc1,-2.2%,-3.4,-15.0,10.3,5.0,-1.6,-6.1,i,0.706
N#C[C@H]1[C@@H](c2ccc(C#Cc3ccccc3F)cc2)[C@@H](CO)N1C(=O)C1CCOCC1,x,x,2.1,-4.7,-4.2,0.7,x,i,x
CN(C)S(=O)(=O)Oc1cccc(C(=O)Nc2ccc([N+](=O)[O-])cc2)c1,24.4%,-1.0,-1.0,-1.7,12.2,-1.6,-5.3,i,0.708
CC/C(O)=C1\C(=O)CCCC1=NCCc1nc2ccccc2[nH]1,x,-0.4,x,x,x,x,-10.2,x,0.694
S=C(Nc1ccc2c(c1)OCO2)N1CCCC1,-0.4%,-3.3,-1.7,22.6,16.6,1.8,-12.3,i,0.682
CCSc1ncc(Cl)c(C(=O)Nc2ccccc2C)n1,-10.2%,-1.8,0.0,14.8,13.6,1.0,2.3,i,0.688
O=C(c1cc(-c2ccc(Cl)cc2)on1)N1CCN(c2ccc(F)cc2)CC1,x,-1.5,0.4,2.3,4.3,0.1,-3.9,i,0.664
C=C(C)C1CC=C(C)/C(=N/NC(=O)CCCNc2cccc(C)c2)C1 (configuration not stated),3.5%,0.4,0.3,9.5,12.8,1.2,39.4,i,x
CC1=CC(C)(C)N(C(=O)CNC2CCCCC2)c2cc(C)ccc21,-4.9%,3.7,3.8,-18.6,-40.2,38.0,-3.4,i,0.651
O=C(CN1C(=O)CSC1=O)NCc1ccccc1,8.9%,-1.4,x,x,x,x,-0.4,x,0.667
C[C@@H]1CN([C@@H](C)CO)C(=O)Cc2cc(NS(C)(=O)=O)ccc2O[C@@H]1CN(C)C(=O)Nc1ccc(F)cc1,x,x,-8.0,0.8,6.5,-0.8,x,i,x
O=C(Nc1nnc(-c2ccc(Br)cc2)o1)C1=COCCO1,1.0%,-1.9,0.0,0.3,0.5,-2.9,-1.7,x,0.64
